Assay outcomes deposited in PubChem by Johns Hopkins Ion Channel Center.
KCNQ2 block: KCNQ2 potassium channel inhibitors, primary screen, cell-based, CHO-K1, FluxOR thallium flux, B-score (AID 2156). O88943. 20 min; active compounds read low; only compounds with negative scores are shown here; some inactives read as strong as hits. B-score at 10 µM. hit rate 1.1% among 310,000;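 active = fluorescence ratio B-score at most minus 3 library SDs, with starting brightness B-score within 2 library SDs, cut at about -5.5 in these data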
Target sequence (O88943 whole entry, looked up): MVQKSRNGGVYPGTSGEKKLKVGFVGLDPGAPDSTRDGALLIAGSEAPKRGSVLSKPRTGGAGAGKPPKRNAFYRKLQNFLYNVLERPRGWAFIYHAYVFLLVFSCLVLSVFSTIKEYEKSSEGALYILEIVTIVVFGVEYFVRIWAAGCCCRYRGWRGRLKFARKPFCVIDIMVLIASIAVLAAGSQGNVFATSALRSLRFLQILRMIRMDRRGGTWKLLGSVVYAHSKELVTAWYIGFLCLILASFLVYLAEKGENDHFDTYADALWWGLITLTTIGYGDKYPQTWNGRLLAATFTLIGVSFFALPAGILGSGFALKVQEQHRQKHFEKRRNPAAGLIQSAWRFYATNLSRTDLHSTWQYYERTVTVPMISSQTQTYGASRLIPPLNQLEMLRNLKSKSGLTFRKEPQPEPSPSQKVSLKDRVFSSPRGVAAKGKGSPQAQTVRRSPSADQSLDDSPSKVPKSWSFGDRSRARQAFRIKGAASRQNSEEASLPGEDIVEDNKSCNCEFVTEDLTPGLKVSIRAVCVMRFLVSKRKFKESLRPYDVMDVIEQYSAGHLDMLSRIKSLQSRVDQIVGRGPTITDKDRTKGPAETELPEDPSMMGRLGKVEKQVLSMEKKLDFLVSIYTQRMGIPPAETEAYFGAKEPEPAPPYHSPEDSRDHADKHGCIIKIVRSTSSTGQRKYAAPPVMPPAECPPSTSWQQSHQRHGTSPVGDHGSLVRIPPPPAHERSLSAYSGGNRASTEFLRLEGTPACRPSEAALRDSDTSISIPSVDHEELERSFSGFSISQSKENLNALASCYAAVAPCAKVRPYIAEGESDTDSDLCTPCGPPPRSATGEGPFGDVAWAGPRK
KCNQ2 block baseline: further read-out of KCNQ2 block, marked with its call; B-score; measured here: initial fluorescence intensity artifact check;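 brightness before thallium and not channel activity; 0 = typical well and far values either way flag optical interference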
Numbers without * were called inactive; i = inactive.

KCNQ2 block | KCNQ2 block baseline | Molecule
i | 1.1 | CC1CCCN(C(=O)CCNS(=O)(=O)c2ccc(Br)cc2)C1 (stereo unspecified)
i | 0.11 | Cn1c(=O)c2c(nc(NCc3ccc4c(c3)OCO4)n2Cc2ccccc2Cl)n(C)c1=O
i | 1.2 | CN(CC(=O)Nc1ccc(F)c(F)c1F)c1cnccn1
i | -0.8 | C/C=C/C=C\C(=O)Nc1cccc(C2=NOC3(C2)C[C@@H](C(N)=O)N(C(=O)c2cc([N+](=O)[O-])cc([N+](=O)[O-])c2)C3)c1 (stereo partly specified)
i | -1.9 | CC(C1CC2CCC1C2)N1CC(O)=C(c2nc3ccccc3[nH]2)C1=N (stereo unspecified)
i | -2.3 | O=C(C1CC1)N1CCc2cc(Br)cc(S(=O)(=O)NCCCN3CCCC3)c21
i | 0.59 | COc1ccc(C(=O)Sc2ccc(C)cc2)cc1OC
i | 1.2 | CCN(CC)c1ccc(CNc2ccc3c(c2)ncn3C(C)(C)C)cc1
i | 1.8 | CN(Cc1c(C(=O)N/N=C/c2cccc(Cl)c2)nnn1-c1nonc1N)c1ccccc1
i | 3.3 | CC12CNCC(C)(CN(C(c3ccccc3)c3ccccc3)C1)C2
i | 1.2 | CCOc1ccc(N2C(=O)CC(Sc3nccc(C)n3)C2=O)cc1 (stereo unspecified)
i | 3.1 | O=C(Nc1nc(-c2nc3ccccc3s2)cs1)c1ccco1
i | -0.04 | NC(=O)C1CCN(C(=O)CSc2ccccn2)CC1
i | -0.08 | Cc1ccccc1Cn1ccc(NC(=O)CCSc2nc(-c3ccco3)cc(C(F)(F)F)n2)n1
i | 2.7 | COCCN1Cc2c(sc(C)c2C)N(C(=O)c2ccccc2)C1
i | 0.82 | COc1ccc(Cl)cc1NC(=O)CC1CCCC1
-8.5* | 0.81* | COC(=O)C(NC(=O)c1ccccc1)(Nc1nc(C)cs1)C(F)(F)F (stereo unspecified)
i | -1.4 | Cc1cc(=O)[nH]c(=S)n1-c1ccccc1
i | -0.07 | CCOc1ccccc1NC(=O)c1cccc2c1C(=O)N(CCOC)C2
i | -3.6 | CN(C)CCCN1c2ccccc2Sc2ccc(C(F)(F)F)cc21
i | 1.1 | N#CC1=C(N)n2c(s/c(=C\c3cccs3)c2=O)=C(C#N)C1c1cccs1 (stereo unspecified)
i | 1.8 | C=CCn1c(SCC(=O)NC2CCCCC2)nnc1-c1sc(N)nc1C
i | 3 | Cc1ccc(-c2ccc(/C=N/NC(=O)c3ccccc3O)o2)cc1
i | 0.22 | Cc1ccc2nc(CCc3ccc(N)cc3)[nH]c2c1
i | 0.74 | S=C(Nc1cccc(Cl)c1)N1CCN(Cc2ccccc2)CC1
i | 0.58 | Cc1ccc(N/N=C(\C#N)C(=N)N2CCCCC2)cc1
i | 1.6 | O=C(Cn1c(=O)n(Cc2ccco2)c(=O)c2cc(Cl)ccc21)NCC1CCCO1 (stereo unspecified)
i | 1.1 | CC(C)(C#N)C(C)(C)c1nn[nH]n1
i | -0.38 | CCCC(c1nnnn1C(C)(C)C)N1CCN(c2ccccc2)CC1 (stereo unspecified)
i | 1.1 | CCOc1ccc(CCNC(=O)CS(=O)Cc2nc(-c3ccc(C)cc3)oc2C)cc1 (stereo unspecified)
i | 2.5 | CCOc1ccc(CCNC(=O)COC(=O)c2nc3nc(C)cc(C)n3n2)cc1OCC
i | 0.71 | O=c1c2c3nc4ccccc4nc3n(/N=C/c3ccccn3)c2ncn1-c1ccccc1

A portion from the list above:
KCNQ2 block | KCNQ2 block baseline | Molecule
i | 0.74 | S=C(Nc1cccc(Cl)c1)N1CCN(Cc2ccccc2)CC1
i | 0.58 | Cc1ccc(N/N=C(\C#N)C(=N)N2CCCCC2)cc1
i | 1.6 | O=C(Cn1c(=O)n(Cc2ccco2)c(=O)c2cc(Cl)ccc21)NCC1CCCO1 (stereo unspecified)
i | 1.1 | CC(C)(C#N)C(C)(C)c1nn[nH]n1

More structures follow:
KCNQ2 block | KCNQ2 block baseline | Molecule
i | 0.58 | CCOC(=O)C(C)n1nc(-c2ccccc2)c2ccccc2c1=O (stereo unspecified)
i | 1.8 | N#CC1=C(N)Oc2cc(N)ccc2C1C1CCCCC1 (stereo unspecified)
i | -0.26 | COc1cccc(C(=O)Nc2c3c(nn2-c2ccc(Cl)cc2)CS(=O)(=O)C3)c1OC
i | 0.11 | Cc1cc(C)nc(SCC(=O)N/N=C/c2cccnc2)n1
i | -0.19 | Cc1c(N=C2SCC(=O)N2/N=C\c2ccc(Br)cc2)c(=O)n(-c2ccccc2)n1C
i | -0.48 | Cc1ccc(C(=O)COC(=O)CNC(=O)Cc2ccccc2)cc1
i | -0.06 | Cc1ccc(NCc2nnc(SCC(=O)NCc3ccco3)n2CC2CCCO2)c(C)c1 (stereo unspecified)
i | -0.1 | CCOC(=O)C1C(=O)NC(SCC(N)=O)=C(C#N)C1c1ccccc1OCC (stereo unspecified)
i | -1.1 | Cc1ccc(CN(CC(=O)N/N=C/c2ccccc2[N+](=O)[O-])S(=O)(=O)c2ccc(C)cc2)cc1
i | -0.45 | O=C(CSc1ccc2ccccc2c1)Nc1nc2ccccc2[nH]1
i | -2.5 | O=C(Cc1ccccc1)NCC(=O)OCC(=O)c1ccc(Cl)c([N+](=O)[O-])c1
i | 0.75 | Cc1cccc(C)c1NC(=O)CNC(=O)C12CC3CC(CC(O)(C3)C1)C2
i | 0.33 | CN1/C(=C\C=C2\N=C(c3ccc(F)cc3)OC2=O)C(C)(C)c2ccccc21
-8.4* | 0.65* | Brc1cccc(CNc2nc3ccccc3n2CCN2CCOCC2)c1
i | -0.08 | CCOC(=O)/C(=N\Nc1ccc(Cl)cc1)c1csc(Nc2ccccc2)n1
i | -0.88 | COc1ccccc1CNC(=O)c1c(-c2ccccc2)nn(-c2ccccc2)c1C
i | 1.2 | CCn1c(SCC(=O)Nc2cccc(O)c2)nc2c1c(=O)n(C)c(=O)n2C
i | 0.36 | O=C(COc1ccc(F)cc1)N(Cc1cccc(Br)c1)C1CCS(=O)(=O)C1 (stereo unspecified)
i | 1.8 | O=C(OCCN=C1NS(=O)(=O)c2ccccc21)c1cccnc1
i | 0.59 | CCOC(=O)c1ccc(NNC(C)=O)c([N+](=O)[O-])c1
i | 0.94 | Cc1cccc(C)c1NC(=O)Cn1nc(-c2ccccc2)nc1-c1ccccc1
i | 0.13 | CCC(=O)NCCCOc1ccccc1
i | -1.4 | Cn1ccc(C(=O)N/N=C/c2ccccc2[N+](=O)[O-])n1
i | -1.2 | O=C(CN1CCCCCC1)Nc1ccccc1[N+](=O)[O-]
i | 2.3 | COc1ccccc1NS(=O)(=O)c1ccc(Cl)cc1
i | -1.2 | Cc1nc(C(C)(C)O)n(-c2ccccc2)n1
i | 0.91 | Fc1ccc(-c2ccc(CNCc3ccccn3)o2)cc1
i | 0.58 | CC(C)N1CC(COc2ccc(Br)cc2)OC1=O (stereo unspecified)
i | -0.69 | COc1ccccc1Nc1nc(N)nc(CSc2nccc(C)n2)n1
i | 1.9 | COc1ccc(Cn2c(N)c(C#N)c3nc4ccccc4nc32)cc1OC
i | 1.4 | O=c1cc(N2CCCCC2)c(-c2ccccc2)nn1Cc1ccc(F)cc1
i | 0.44 | COc1ccc(C2=NS(=O)(=O)N(C)C(C(=O)N3CCC(C)CC3)=C2)cc1
i | 0.89 | CCCC1C(=O)Nc2ccccc2N1C(=O)c1cccc(C)c1 (stereo unspecified)
i | 0.13 | COc1cc(C(=O)Nc2ccc(Nc3ccccc3)cc2)cc(OC)c1OC
i | 1.2 | CCN(CC(=O)NCc1cccs1)C(=O)c1ccc(OC)c(S(=O)(=O)N2CCOCC2)c1
i | -1.4 | CC(C)N1CCc2c(sc(NC(=O)CCc3ccccc3)c2C(N)=O)C1
i | 1.2 | CC(=O)C1C(c2cccc(Oc3ccccc3)c2)NC(=O)NC1(O)C(F)(F)F (stereo unspecified)
i | -0.22 | CCOc1ccc(N(C)S(=O)(=O)c2c[nH]c(C(=O)OC)c2)cc1
i | -0.72 | CC(OC(=O)c1cc2c(ccc3ccccc32)oc1=O)c1nc2ccccc2s1 (stereo unspecified)
-5.8* | -0.08* | CCN(CC)CCNC(=O)c1c(C)n(-c2ccccc2)c2cc(Br)c(OC)cc12

One compound at a time, from the list above:
CC(C)N1CCc2c(sc(NC(=O)CCc3ccccc3)c2C(N)=O)C1 reads KCNQ2 block: i; KCNQ2 block baseline: -1.4
CCN(CC)CCNC(=O)c1c(C)n(-c2ccccc2)c2cc(Br)c(OC)cc12 reads KCNQ2 block: -5.8*; KCNQ2 block baseline: -0.08*
COc1cc(C(=O)Nc2ccc(Nc3ccccc3)cc2)cc(OC)c1OC reads KCNQ2 block: i; KCNQ2 block baseline: 0.13

(next part)
KCNQ2 block | KCNQ2 block baseline | Molecule
i | 0.36 | COc1ccc(C(=O)C2CCCN(Cc3ccc4nonc4c3)C2)cc1OC (stereo unspecified)
i | 0.5 | Cc1cc2n(c1)CCn1c(C)ccc1-2
i | 0.21 | O=C(Nc1ccc(Cl)cc1)N(Cc1nc2ccccc2c(=O)[nH]1)Cc1cccs1
i | 0.07 | Cc1ccc(-c2csc3ncnc(Oc4ccc5c(C)cc(=O)oc5c4)c23)cc1
i | -0.83 | FC(F)(F)c1ccccc1NC(=S)NC1CCN(Cc2ccccc2)CC1
i | -1.6 | CCc1ccc(N2CC(C(=O)N/N=C/c3cc([N+](=O)[O-])ccc3O)CC2=O)cc1 (stereo unspecified)
i | 1.5 | Cc1ccc2cc(/C=C(\C#N)C(N)=O)c(N3CCCCC3)nc2c1
i | -0.46 | O=C(O)CSCC(=O)Nc1ccc(C(=O)O)cc1
i | -0.07 | CN(C)CCN(C(=O)/C=C/c1cccs1)c1nc2ccc(Br)cc2s1
i | -0.25 | CC1Cc2ccccc2N1S(=O)(=O)c1cnc(Cl)c(Cl)c1 (stereo unspecified)
i | 1.7 | O=C(Cc1cc(=O)[nH][nH]1)N/N=C/c1cccc2ccccc12
i | 1.1 | Cc1ccc(S(=O)(=O)N/N=C/c2c(F)cccc2Cl)cc1
i | -1.7 | Cc1cc(C)c2c(N=NN3CCOCC3)[nH]nc2n1
-6.2* | -0.74* | CCC1CCCCN1C(=O)C1CC(c2cc(Cl)c(OC)cc2OC)=NO1 (stereo unspecified)
i | 0.1 | CCN(C(=O)Cc1nc(N)n[nH]1)C1(C(=O)Nc2ccccc2)CCCCC1
i | 0.51 | O=S(=O)(c1ccccc1C(F)(F)F)N1CCOCC1
i | 0.32 | O=C(NNC(=O)c1cccc(-n2cnnn2)c1)c1ccccc1
i | -0.67 | CCc1ccc(NC(=O)CSc2nnc(CNC(=O)c3ccco3)o2)cc1
i | -0.93 | O=S(=O)(c1ccc(Cl)cc1)N1CCN=C1SCc1cccc(Cl)c1
i | -0.34 | CCOc1ccc(/C=C/c2nc(C#N)c(NCCCN(C)C)o2)cc1
i | 0.85 | Nc1cccc2c1C(=O)N(C(=O)c1cccc(S(=O)(=O)N3CCCC3)c1)C2=O
i | 0.51 | COc1ccc(/C=C/C(=O)NCCSCc2ccco2)cc1
-5.8* | -1.9* | O=C(c1cccn2c(=O)c3ccc(Cl)cc3nc12)N1CCN(Cc2ccc3c(c2)OCO3)CC1
i | 1.9 | Cc1csc2ncc(C(=O)NC(C)c3ccccc3)c(=O)n12 (stereo unspecified)
i | -0.03 | c1ccc(CN2CCN(CCOCCOc3cccc4ccccc34)CC2)cc1
i | 0.24 | CCCNC(=O)CCn1nc(-c2ccccc2)c2ccccc2c1=O
i | -0.4 | COc1cccc(-n2nnnc2SCC(=O)Nc2cccc(C)n2)c1
i | 0.03 | O=C(Cc1ccccc1)NCC(=O)N/N=C/c1cccnc1
i | 1.1 | COc1ccc(-c2cc(C(=O)Nc3c(C)n(C)n(-c4ccccc4)c3=O)no2)cc1OC
i | -1.4 | Nc1ccccc1C(=O)NCC1(c2ccccc2)CCCC1
i | -0.02 | O=C(c1ccc(-c2ccccc2)cc1)c1ccc([N+](=O)[O-])cc1
i | 0.92 | Cc1ccccc1N1CCN(Cc2ccc(Br)o2)CC1
i | 0.31 | CCCC(=O)Nc1nnc(CC(=O)N2CCCC2)s1
i | -0.47 | Cc1cc(NC(=O)CN2C(=O)NC3(CCCCCC3)C2=O)no1
i | 0.67 | O=C(Cc1ccccc1)N1CCN(S(=O)(=O)c2cccc([N+](=O)[O-])c2)CC1
i | 0.17 | O=[N+]([O-])c1ccc(Nc2nc(Cl)nc(NCCO)n2)cc1
i | -2.1 | Cc1ccc(S(=O)(=O)Nc2ccccc2C(=O)OC(C)C(=O)Nc2ccc3ccccc3c2)cc1[N+](=O)[O-] (stereo unspecified)
i | 0.84 | O=C(CN1C(=O)C2CC=CCC2C1=O)OCC(=O)c1ccc(Cl)c([N+](=O)[O-])c1 (stereo unspecified)
i | -0.73 | CN1CCN(c2nc(-c3ccccc3)ncc2S(=O)(=O)c2ccccc2)CC1
i | -1.1 | Cc1ccc(CSCC(=O)N2CCN(Cc3ccc4c(c3)OCO4)CC2)cc1

3 records picked at random from the list so far:
KCNQ2 block | KCNQ2 block baseline | Molecule
i | -0.73 | CN1CCN(c2nc(-c3ccccc3)ncc2S(=O)(=O)c2ccccc2)CC1
i | 0.84 | O=C(CN1C(=O)C2CC=CCC2C1=O)OCC(=O)c1ccc(Cl)c([N+](=O)[O-])c1 (stereo unspecified)
i | -0.47 | Cc1cc(NC(=O)CN2C(=O)NC3(CCCCCC3)C2=O)no1

More results follow.
KCNQ2 block | KCNQ2 block baseline | Molecule
i | -0.8 | CCC(=O)Nc1ccccc1Sc1ncnc2scc(-c3ccccc3)c12
i | 0.37 | Cn1nnc2cc(C(=O)NCCC3=CCCCC3)ccc21
i | 1.2 | CC(C)CC(=O)N(c1ccc(F)cc1)C1C=CS(=O)(=O)C1 (stereo unspecified)
i | 0.99 | CCc1cccc2c(C#N)cn(CC(=O)NCCOC)c12
i | -0.78 | CCOC(=O)C1CCC(CN(Cc2ccccc2C)S(=O)(=O)c2ccc([N+](=O)[O-])cc2)CC1 (stereo unspecified)
i | 5.5 | COc1ccccc1N/C(N)=N/c1nc(CSc2ccc(C)cc2)cc(=O)[nH]1
i | -0.75 | COc1cc(OC)c(NS(=O)(=O)c2cc3[nH]c(=O)c(=O)[nH]c3cc2C)cc1Cl

The list is partial. The share of hits here may be higher or lower than overall.
